Screens (PubChem)
Arbovirus inh – blocks arbovirus infection; actives 0.37% (n = 200,000); arbovirus infection cell-based antiviral screen; AID 1251; inhibition, % at 10 µM;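 active means inhibition from about 30%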;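 further: bluetongue infection of BSR cells; cell survival read as ATP light after 72 h; 0% = infected wells without compound and 100% = uninfected wells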
YopH inh – YopH (Yersinia) phosphatase inhibition; fluorescence Ex485/Em525; actives 0.16% (n = 140,000); inhibition, %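 (about 10 µM by stock and volumes)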;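 active means inhibition of 50% or more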;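 further: controls were vehicle for no effect and minimum signal wells for full effect; inactives centre near -20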
Mtb growth – M. tuberculosis H37Rv growth inhibitors, H37Rv strain (AID 1626); M. tuberculosis H37Rv growth inhibition; higher % means a stronger effect; inhibition, % at 10 µM, or IC50 in µM where a hit was titrated; actives 0.95% (n = 220,000);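 active means confirmed in a dose series; inconclusive means inhibition above 80% but not taken into the dose series; inactive means below 80% or under 30% at every dose of the series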;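 further: bacteria incubated seven days before Alamar blue readout; 0% = bacteria only wells and 100% = bacteria with antibiotic wells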
Mtb betalactam – beta-lactam sensitization of Mtb H37Rv; M. tuberculosis H37Rv growth with meropenem, percent inhibition; hits of this screen are not shown here; actives 0.27% (n = 330,000); inhibition, % at 25 µM;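 active means about 74% or more and at least 40 points above the plate without the antibiotic, then above 30% in a dose series; inconclusive means first-round hits that could not be retested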;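 further: growth measured after seven days incubation then overnight dye step; 0% = bacteria only wells and 100% = bacteria with antibiotic; twin plates without the antibiotic show which effects depend on it; some results filed as inactive read as strong as hits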
RecA intein inh – inhibitors of M. tuberculosis RecA intein splicing | cell-free RecA intein splicing, fluorescence | inhibition, %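 (about 9 µM by stock and volumes)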 | AID 2221 | P9WHJ3 | actives 0.75% (n = 290,000); in the data active means inhibition above about 30%; inconclusive means no clear call, values can overlap the other calls;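 further: 0% = vehicle wells and 100% = reference inhibitor control wells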
Target sequence (P9WHJ3 whole entry, looked up): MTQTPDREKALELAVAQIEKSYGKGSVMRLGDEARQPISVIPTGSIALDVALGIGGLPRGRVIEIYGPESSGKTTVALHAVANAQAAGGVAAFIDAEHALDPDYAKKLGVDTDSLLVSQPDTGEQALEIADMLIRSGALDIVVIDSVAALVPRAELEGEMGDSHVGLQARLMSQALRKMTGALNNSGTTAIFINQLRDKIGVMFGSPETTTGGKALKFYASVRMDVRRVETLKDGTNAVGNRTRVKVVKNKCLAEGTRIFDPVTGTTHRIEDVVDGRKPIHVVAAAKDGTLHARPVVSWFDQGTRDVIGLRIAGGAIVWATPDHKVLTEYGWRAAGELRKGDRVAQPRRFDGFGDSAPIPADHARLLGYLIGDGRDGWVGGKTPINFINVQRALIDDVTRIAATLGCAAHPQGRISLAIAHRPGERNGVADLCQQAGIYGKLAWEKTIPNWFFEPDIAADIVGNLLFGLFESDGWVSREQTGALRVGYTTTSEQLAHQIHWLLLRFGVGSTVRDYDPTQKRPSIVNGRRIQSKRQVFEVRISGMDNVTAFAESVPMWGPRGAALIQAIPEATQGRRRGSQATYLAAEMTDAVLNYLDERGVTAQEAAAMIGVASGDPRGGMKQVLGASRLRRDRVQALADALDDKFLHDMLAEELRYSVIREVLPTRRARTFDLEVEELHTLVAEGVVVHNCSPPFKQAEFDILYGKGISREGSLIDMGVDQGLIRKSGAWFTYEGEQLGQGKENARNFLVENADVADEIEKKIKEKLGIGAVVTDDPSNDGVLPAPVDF
Active calls of the source: *; ? = inconclusive; . = no result given.

1. CC(Sc1nc2cc(Cl)ccc2s1)C(=O)Nc1ccc2c(c1)OCO2 (stereo unspecified)
2. CN(C)CCNC(=O)C1CCN(S(=O)(=O)c2ccc3ccccc3c2)CC1
3. O=C(c1ccccc1Nc1ccc(SC(F)F)cc1)N1CCCCCC1
4. CCOc1ccnc(OCC)c1Br
5. COc1cc(CCC(=O)Nc2cc(Cl)ccc2N2CCN(C)CC2)cc(OC)c1OC
6. CCOC(=O)c1ccc(Oc2nc(SC)nc(N(C)C)n2)cc1

Assay by compound	1	2	3	4	5	6
Arbovirus inh	4	.	-31	5	-25	-6
YopH inh	-10	.	-34	-14	-1	16
Mtb growth	14%	.	2%	6%	12%	13%
Mtb betalactam	2	-4	3	0	-3	-5
RecA intein inh	1.7	0.0	14	4.9	1.2	2.2

7. CCO[C@H]1OC(C(N)=O)=C[C@@H](C2CCCCC2)[C@@H]1CCCO
8. COc1ccc2[nH]c(C(=O)N3CCC(CO)(Cc4cccc(C(F)(F)F)c4)CC3)c(C)c2c1
9. CCOC(=O)N1CCC2(CC1)C(C#N)=C(N)OC1=C2C(=O)CCC1
10. COc1ccccc1C(=O)N1c2ccccc2Sc2ccccc21
11. Cc1ccc(C2=CC(c3cccs3)n3nnnc3N2)cc1 (stereo unspecified)
12. CCOC(=O)C1=C(N)N(c2ccc(C)cc2)C2=C(C(=O)CCC2)C1c1cccs1 (stereo unspecified)

Assay by compound	7	8	9	10	11	12
Arbovirus inh	1	.	8	25	-6	17
YopH inh	.	.	.	-14	-33	-29
Mtb growth	-6%	.	-4%	9%	.	6%
Mtb betalactam	-6	39	-1	6	-9	0
RecA intein inh	0.7	0.5	-0.9	6.1	-0.5	-0.1

Entries above that contain a carbonyl joined to an NH by a bond outside any ring:
1. CC(Sc1nc2cc(Cl)ccc2s1)C(=O)Nc1ccc2c(c1)OCO2 (stereo unspecified)
2. CN(C)CCNC(=O)C1CCN(S(=O)(=O)c2ccc3ccccc3c2)CC1
5. COc1cc(CCC(=O)Nc2cc(Cl)ccc2N2CCN(C)CC2)cc(OC)c1OC
7. CCO[C@H]1OC(C(N)=O)=C[C@@H](C2CCCCC2)[C@@H]1CCCO

Assay by compound	1	2	5	7
Arbovirus inh	4	.	-25	1
YopH inh	-10	.	-1	.
Mtb growth	14%	.	12%	-6%
Mtb betalactam	2	-4	-3	-6
RecA intein inh	1.7	0.0	1.2	0.7

As entered above.
no. 2 in RecA intein inh: 0.0
no. 1 in RecA intein inh: 1.7
no. 3 in RecA intein inh: 14
no. 8 in RecA intein inh: 0.5
no. 12 in Mtb betalactam: 0

Reprinted at random: 4 compounds from above
9. CCOC(=O)N1CCC2(CC1)C(C#N)=C(N)OC1=C2C(=O)CCC1
11. Cc1ccc(C2=CC(c3cccs3)n3nnnc3N2)cc1 (stereo unspecified)
8. COc1ccc2[nH]c(C(=O)N3CCC(CO)(Cc4cccc(C(F)(F)F)c4)CC3)c(C)c2c1
12. CCOC(=O)C1=C(N)N(c2ccc(C)cc2)C2=C(C(=O)CCC2)C1c1cccs1 (stereo unspecified)

Assay by compound	9	11	8	12
Arbovirus inh	8	-6	.	17
YopH inh	.	-33	.	-29
Mtb growth	-4%	.	.	6%
Mtb betalactam	-1	-9	39	0
RecA intein inh	-0.9	-0.5	0.5	-0.1

(list continues)
13. C/C(=N\NC(=O)c1csc2ccccc12)c1ccc(O)cc1
14. CCCCn1c(SCC(=O)NCc2cccs2)nc2c1c(=O)n(C)c(=O)n2C
15. COc1ccc2oc(=O)c(/C(N)=N/NC(=O)c3ccncc3)cc2c1
16. CC(=O)N/C(=C/c1ccc2c(c1)OCO2)C(=O)N1CCOCC1
17. O=C(O)c1cc(S(=O)(=O)N2CCCCCC2)ccc1Cl
18. O=S(=O)(NNC(=S)NCC1CCCO1)c1cc(Cl)ccc1Cl (stereo unspecified)

Assay by compound	13	14	15	16	17	18
Arbovirus inh	-3	-2	.	.	2	.
YopH inh	-6	-50	.	.	-16	.
Mtb growth	2%	-4%	.	.	-4%	.
Mtb betalactam	.	2	99	1	-9	6
RecA intein inh	-2.9	2.5	-9.8	-0.6	-1.6	0.3

19. CCCCN(C(=O)c1cccc(S(=O)(=O)N2CCOCC2)c1)c1c(N)n(CCC)c(=O)[nH]c1=O
20. Cc1ccc(C)c(NC(=O)CN(C)C(=O)COc2cccc3c2OC(C)(C)C3)c1
21. CCN(CC(=O)Nc1c(F)cccc1F)C(=O)CSCC(=O)Nc1cccc(C)c1
22. CC(=O)Nc1ccc(S(=O)(=O)N2c3ccccc3C(C)=CC2(C)C)cc1
23. C=CCN1C(=O)C(C)(C)Nc2ccccc21
24. O=C(CSCc1nc2scc(-c3cccs3)c2c(=O)[nH]1)Nc1ccccn1

Assay by compound	19	20	21	22	23	24
Arbovirus inh	5	.	.	-22	0	.
YopH inh	.	.	.	.	-23	.
Mtb growth	-4%	.	.	-5%	-15%	.
Mtb betalactam	-8	0	-5	5	2	-1
RecA intein inh	-4.1	1.2	2.1	-3.4	.	-1.6

25. O=C(Oc1ccccc1N1C(=O)C2CCCCC2C1=O)c1ccccc1F (stereo unspecified)
26. O=C(Nc1ccccc1)c1cccc(S(=O)(=O)NC2CCCC2)c1
27. Cn1c(SCc2cccc([N+](=O)[O-])c2)nc2c(c1=O)SCC2
28. CN(Cc1ccc(F)cc1)C(=O)COc1ccc2ccccc2c1
29. COc1cccc2cc(NC(=O)C3CCCCC3)c(=O)oc12
30. Cc1cc(C(=O)OCC(=O)Nc2ccc(F)c(F)c2)c(C)o1

Assay by compound	25	26	27	28	29	30
Arbovirus inh	5	.	12	.	4	-2
YopH inh	-5	.	.	.	-64	-26
Mtb growth	1%	.	-4%	.	4%	7%
Mtb betalactam	0	-19	-6	4	4	0
RecA intein inh	-1.1	3.7	0.7	0.9	.	4.5

31. COc1cc(C(=S)N2CCCCC2)ccc1OCC(=O)N1CCCC1
32. COc1ccc(NC(=O)c2cc(-c3ccccc3)nc3c2c(C)nn3-c2ccccc2)c(OC)c1
33. COc1ccc(-c2c(-c3ccc(OC)cc3O)nc(C)nc2C(F)(F)F)cc1
34. Cc1ccc(OCCCC(=O)Nc2cc(Cl)ccc2-n2cncn2)cc1
35. COc1ccc(S(=O)(=O)NCC2CCCN(C(=O)CCSC)C2)cc1 (stereo unspecified)
36. Cc1cc(F)ccc1NC(=O)c1ccc(NS(=O)(=O)c2cc(C(C)(C)C)ccc2C)cc1

Assay by compound	31	32	33	34	35	36
Arbovirus inh	8	-6	.	.	.	5
YopH inh	-23	-8	.	.	.	-29
Mtb growth	-4%	43%	.	.	.	6%
Mtb betalactam	-3	98	7	-4	-2	8
RecA intein inh	-1.4	0.4	-1.7	2.6	-3.4	2.5

37. COC(=O)c1ccc(Oc2c(C)oc3c(CN4CCN(C)CC4)c(O)ccc3c2=O)cc1
38. CNC(=S)Nc1cccc([N+](=O)[O-])c1
39. O=C(Nc1ccccc1)Nc1ccc(C(=O)N2CCCC2)cc1
40. Cc1ccc(C(C)NC(=O)c2cccs2)cc1 (stereo unspecified)
41. CCCOc1cccc(C2C(C(=O)c3cccs3)=C(O)C(=O)N2CCN2CCOCC2)c1 (stereo unspecified)
42. CCOC(=O)CN=C(NS(=O)(=O)c1ccc(Cl)cc1)c1ccccc1

Assay by compound	37	38	39	40	41	42
Arbovirus inh	3	-5	-12	.	.	1
YopH inh	-35	.	.	.	.	.
Mtb growth	-10%	-5%	4%	.	.	1%
Mtb betalactam	?	-5	65	-1	-9	1
RecA intein inh	-3.6	-1.0	1.4	-1.8	0.2	3.4

43. CC(=O)NC1=NC(=O)/C(=C/c2cc(C)n(-c3ccc(NC(C)=O)cc3)c2C)S1
44. O=C(CSc1nccc(=O)[nH]1)Nc1cccc2ccccc12
45. CCCCn1c(SCC(=O)NNC(=O)c2ccco2)nnc1-c1ccco1
46. CSCCC(NS(=O)(=O)c1ccc2c(c1)oc(=O)n2C)C(=O)NCc1ccc(C)cc1 (stereo unspecified)
47. COc1ccc(OC)c(NC(=O)Cn2cccc2)c1
48. CCN(CC)CCCNC(=O)Cn1nc([N+](=O)[O-])c(Cl)c1C

Assay by compound	43	44	45	46	47	48
Arbovirus inh	-2	.	-6	.	-3	-3
YopH inh	.	.	.	.	-53	.
Mtb growth	1%	.	-4%	-7%	0%	-2%
Mtb betalactam	1	16	-3	0	.	-8
RecA intein inh	-7.4	1.5	3.8	-1.3	1.3	-1.2

49. CN(CC(=O)Nc1ccccc1Cl)C(=O)CSc1nnc(-c2ccco2)o1
50. Cc1ccc(NC(=O)c2ccc(F)cc2F)cc1NS(C)(=O)=O
51. O=C(O)CSc1nnc(NC(=O)c2ccc3c(c2)OCO3)s1
52. COC(OC)c1ccnc(SCc2ccccc2Cl)n1
53. CCOC(=O)c1c(NC(NC(=O)CF)C(Cl)(Cl)Cl)sc2c1CCCC2 (stereo unspecified)
54. COc1ccccc1N1C(=O)c2cccnc2C1=O

Assay by compound	49	50	51	52	53	54
Arbovirus inh	-1	.	-1	.	-28	.
YopH inh	.	.	.	.	-26	.
Mtb growth	4%	2%	5%	5%	-3%	.
Mtb betalactam	1	2	3	2	2	-7
RecA intein inh	1.6	-0.5	.	2.2	5.2	-2.0

The last 3 entries of the section before lead into the next.
52. COC(OC)c1ccnc(SCc2ccccc2Cl)n1
53. CCOC(=O)c1c(NC(NC(=O)CF)C(Cl)(Cl)Cl)sc2c1CCCC2 (stereo unspecified)
54. COc1ccccc1N1C(=O)c2cccnc2C1=O
55. CSCCC(NC(=O)c1ccc(Cl)cc1Cl)C(=O)NNC(=O)c1csc(N2CCOCC2)n1 (stereo unspecified)
56. COc1ccc(C(O)(CCc2ccccc2)CCN2CCCCC2)cc1 (stereo unspecified)
57. CCc1nnc(NC(=O)C(C)C)s1
58. COc1cc(C(C(=O)NC2CCCCC2)N(Cc2cccs2)C(=O)Cc2c[nH]c3ccccc23)cc(OC)c1OC (stereo unspecified)
59. O=c1c2[nH]c3ccccc3c2nc2n1CCCS2
60. Cc1cccc(C(=O)N2CCc3cc(-c4nc(NC(=O)Cn5nnc6ccccc6c5=O)sc4C)ccc32)c1

Assay by compound	52	53	54	55	56	57	58	59	60
Arbovirus inh	.	-28	.	.	-13	5	3	7	-20
YopH inh	.	-26	.	.	.	-21	-17	.	-23
Mtb growth	5%	-3%	.	.	0%	3%	5%	-5%	47%
Mtb betalactam	2	2	-7	-13	1	-7	-5	-5	86
RecA intein inh	2.2	5.2	-2.0	-2.4	-1.6	.	4.8	7.4	3.4

61. O=C(Nc1cccc(S(=O)(=O)NC2=NCCCCC2)c1)C1COc2ccccc2O1 (stereo unspecified)
62. Oc1cncc(Cc2ccccc2)c1
63. O=C(/C=C/c1ccc(S(=O)(=O)N2CCOCC2)cc1)N1CCN(c2ccc(F)cc2)CC1
64. COC(=O)Nc1nc2c(s1)CCCC2
65. COc1cc(CN2CCC(C(=O)NC3CCCC3)CC2)cc(OC)c1O
66. COc1cccc(NC(=O)C2CC(=O)n3cnnc3S2)c1 (stereo unspecified)

Assay by compound	61	62	63	64	65	66
Arbovirus inh	8	.	.	-3	-4	4
YopH inh	.	.	.	-23	-17	-68
Mtb growth	-2%	.	-5%	2%	-7%	-10%
Mtb betalactam	-12	-4	-2	-1	4	1
RecA intein inh	1.4	1.3	1.0	-11	-9.6	.

67. CCc1ccccc1NC(=O)C1CCCN1C(=O)Nc1ccc(C)cc1 (stereo unspecified)
68. CCOC(=O)C1CCCN(c2nc(C)nc3c2oc2ccccc23)C1 (stereo unspecified)
69. O=C1CCCC2=C1C(c1ccsc1)CC(=O)N2c1nnc(SCc2ccccc2)s1 (stereo unspecified)
70. COc1ccc(C2=Nn3c(nnc3-c3ccccn3)SC2)cc1OC
71. COc1ccc(O[C@H]2C=C[C@@H](c3ccccc3)O[C@@H]2COC(=O)CC/C(C)=N/O[C@H](C)c2cn([C@@H]3COC[C@H]3O)nn2)cc1

Assay by compound	67	68	69	70	71
Arbovirus inh	.	-2	-7	-2	3
YopH inh	.	-37	-46	-24	-28
Mtb growth	.	17%	0%	0%	.
Mtb betalactam	-3	44	.	8	-3
RecA intein inh	-2.1	6.2	.	2.4	1.2

Only part of the results is shown. The share of hits here may be higher or lower than overall.
